PMP22 txn prim: PMP22 gene transcription modulation; S16 Pmp22-F2sN Schwann cells (luciferase reporters placed in the Pmp22 gene), FLuc/NLuc coincidence luminescence, 24 h; Potency, µM (top dose mostly 57.5 µM), for the others: at the top dose activity change, negative = inhibition, most hits filed as inhibitors; 2% of 43,000 active; active = clear falling dose curves in both reporters; inconclusive = both reporters move, but less clearly or upward; inactive = either reporter flat; the % is the NLuc reporter signal; also: % is scaled to controls: 0 for no effect and ±100 for the full control effect; some results filed as inactive show a strong effect at the top dose
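Luminescent read-out of sequential FLuc and NLuc signals from a reporter embedded in the Pmp22 3' UTR of S16 Schwann cells, taken after 24 h compound exposure at 37C; compounds reducing both signals score as inhibitors of expression.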
HTT promoter inh: HTT promoter inhibition | HEK293 HTT promoter firefly luciferase reporter (activity 0% = vehicle and -100% = no light), 24 h | Potency, µM (titrated, usually from 57.5 µM), inactives show at the highest dose activity change, negative = inhibition, actives largely listed as inhibitors | 0.93% of 48,000 active | AID 1508623; active = well fitted inhibition curve with a large enough effect; inconclusive = small, poorly fitted or top-dose-only effect; inactive = no such curve, though single readings can be large or run the other way; also: nearly all actives have a fitted effect of over 50% in size
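Luminescence was read after Dual-Glo reagent and a 10 min room-temperature incubation. Values were normalized to vehicle (0% activity) and zero RLU (-100% activity). Reporter HEK293 cells had been exposed to compounds (up to 57.5 uM final) for 24 h.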
* = called active by the depositor; ? = inconclusive; . = no result given; & = joins results of further samples; [ ] = dose if it differs, or a comment. Potency is read from the fitted curve at half-maximal effect. The list is partial; the hit share may differ from the screen's.

SMILES	PMP22 txn prim	HTT promoter inh
CCOc1ccc(C2C(C(=O)Nc3ccc(C)cc3C)=C(C)Nc3c(C(=O)Nc4ccc(C)cc4)cnn32)cc1OC (configuration not stated)	-55%	3%
Cc1ccc(Cl)cc1N1CCN(C(=O)C2CCN(Cc3nc(-c4cccc(Cl)c4)oc3C)CC2)CC1	?	-10%
CCc1nc2ccc(C(=O)N3CCN(c4cc(C)ccc4C)CC3)cc2nc1CC	?	?
Cc1ccc(NC(=O)c2oc3ccc(S(=O)(=O)N4CCCCC4)cc3c2C)c(C)c1	-11%	-16%
Cc1ccc(Cl)cc1N1CCN(C(=O)CSc2cc(=O)n(C)c3ccccc23)CC1	?	?
COc1ccc(-c2cn3c(n2)sc2cc(C(=O)NCc4cccs4)ccc23)cc1	4%	21%
Cc1cc(NS(=O)(=O)c2ccc(N)cc2)no1	.	30%&-2%[activator]
O=C(Cn1ccc2cc(S(=O)(=O)N3CCCCC3)ccc21)NCCc1ccccc1Cl	?	?
COc1ccc(Cl)cc1-n1c(/C=C/c2cccc3ccccc23)nc2ccccc2c1=O	12%	?
CCCC(=O)Nc1cc2nn(-c3ccc(OC)cc3)nc2cc1C	6%	53%[activator]
CC1CCCCN1CCCNC(=O)CN1C(=O)c2cccnc2Oc2ccccc21 (configuration not stated)	-4%	-3%
Oc1c(Br)cc(Br)c2cccnc12	.	-1%
CC(=O)N1c2ccccc2CC1C(=O)N1CCN(c2cc(Cl)ccc2C)CC1 (configuration not stated)	-33%	-14%
COc1ccc(-n2c(Cc3ccccc3)nnc2SCc2nc(-c3ccccc3C)no2)cc1	?	-30%
CCCCN(C)CCCNC(=O)CN1C(=O)COc2ccc(S(=O)(=O)N3CCOCC3)cc21	-2%	-13%
Cc1noc(-c2ccc(N3CCCCC3C)c([N+](=O)[O-])c2)n1 (configuration not stated)	-32%	39%[activator]
CC(C)NC(=O)c1cnc2sc(N3CCCCCC3)nn2c1=O	-18%	11%
Cc1cccn2cc(-c3cccc(NC(=O)C(C)C)c3)nc12	-31%	17%
Cc1ccc(CNC(=O)Cn2ccn(-c3ccc(C)c(C)c3)c(=O)c2=O)cc1	-14%	-2%
COc1ccc(-c2noc(N3CCN(c4cccc(Cl)c4)CC3)n2)cc1OC	-35%	?

Of the compounds above, these have four or more nitrogen atoms:
SMILES	PMP22 txn prim	HTT promoter inh
CCOc1ccc(C2C(C(=O)Nc3ccc(C)cc3C)=C(C)Nc3c(C(=O)Nc4ccc(C)cc4)cnn32)cc1OC (configuration not stated)	-55%	3%
Cc1ccc(Cl)cc1N1CCN(C(=O)C2CCN(Cc3nc(-c4cccc(Cl)c4)oc3C)CC2)CC1	?	-10%
CCc1nc2ccc(C(=O)N3CCN(c4cc(C)ccc4C)CC3)cc2nc1CC	?	?
CCCC(=O)Nc1cc2nn(-c3ccc(OC)cc3)nc2cc1C	6%	53%[activator]
CC1CCCCN1CCCNC(=O)CN1C(=O)c2cccnc2Oc2ccccc21 (configuration not stated)	-4%	-3%
COc1ccc(-n2c(Cc3ccccc3)nnc2SCc2nc(-c3ccccc3C)no2)cc1	?	-30%
CCCCN(C)CCCNC(=O)CN1C(=O)COc2ccc(S(=O)(=O)N3CCOCC3)cc21	-2%	-13%
Cc1noc(-c2ccc(N3CCCCC3C)c([N+](=O)[O-])c2)n1 (configuration not stated)	-32%	39%[activator]
CC(C)NC(=O)c1cnc2sc(N3CCCCCC3)nn2c1=O	-18%	11%
COc1ccc(-c2noc(N3CCN(c4cccc(Cl)c4)CC3)n2)cc1OC	-35%	?

Later entries:
SMILES	PMP22 txn prim	HTT promoter inh
CCOC(=O)c1c(C)oc2ncnc(N3CCN(c4cccc(Cl)c4)CC3)c12	?	?
O=C(COc1ccccc1Cl)N(Cc1cccc(F)c1)C1CCS(=O)(=O)C1 (configuration not stated)	-12%	-9%
COc1cc(NC(=O)C2CCN(S(=O)(=O)c3c(C)noc3/C=C/c3c(C)cc(C)cc3C)CC2)cc(OC)c1	-5%	-26%
Cc1cccc(C)c1NC(=O)c1ccc2c(c1)nnn2C1CCCC1	?	-5%
COc1ccc(-n2c(SCC(=O)c3ccc(Cl)cc3)nc3c([nH]c4ccccc43)c2=O)cc1	-25%	-1%
Cc1ccc(NC(=O)CCS(=O)(=O)c2cccc3nonc23)cc1Cl	?	-19%
CCN(c1cc(C)cc(C)c1)S(=O)(=O)c1nnc(NC(=O)c2ccco2)s1	-62%	-18%
O=C(Cn1cc(C(=O)c2ccco2)c2ccccc21)Nc1ccccc1	4%	-23%
Cc1nc(C)c(-c2ccc(SCC(=O)Nc3ccccc3F)nn2)s1	-29%	18%
N#Cc1ccc(NS(=O)(=O)c2ccc(-c3cnc(C4CC4)o3)cc2)cc1	?	?
COc1ccc(OC)c(NC(=O)C2CCN(S(=O)(=O)c3ccc4c(c3)CCCC(=O)N4)CC2)c1	?	-12%
CCCCNc1nc2c(S(=O)(=O)c3ccc(Br)cc3)nnn2c2ccsc12	?	2%
COc1cccc(C(=O)Nc2ccccc2C(=O)OCc2cc(=O)n3nc(C4CC4)sc3n2)c1	10%	-13%
O=C(Cn1c(=O)oc2cc(S(=O)(=O)NCc3ccccc3)ccc21)Nc1ccc(F)c(Cl)c1	-15%	?
Cc1coc2cc3oc(=O)c(CC(=O)NCCc4ccccc4F)c(C)c3cc12	-25%	2%
COc1cccc(CNC(=O)c2nnc(Cc3ccc(Cl)cc3)o2)c1	-6%	-4%
CN(C(=O)CC(=O)Nc1ccc2nc3n(c(=O)c2c1)CCCCC3)c1ccccc1F	3%	?
Cc1cc(C)cc(Nc2cc(C(=O)NC3CCCCC3)c3ccccc3n2)c1	-32%	-10%
CCOC(=O)C1=C(CN2CCC(C)CC2)NC(=O)NC1c1ccc(OC(C)C)cc1 (configuration not stated)	?	?
COc1cccc(CNC(=O)Cn2c(=O)ccc3cc(S(=O)(=O)N4CCC(C)CC4)ccc32)c1	-15%	-15%
COc1ccc(N2CCN(c3oc(/C=C/c4cccc(OC)c4)nc3C#N)CC2)cc1	1%	-9%
COc1ccccc1N1CCN(C(=O)Cn2ncc3c(=O)oc4ccccc4c32)CC1	-12%	-4%
CCOC(=O)c1cc(-c2ccccc2)n(CCC(=O)Nc2ccc(Cl)c(C(F)(F)F)c2)c1C	?	22µM*
COc1ccc(-c2noc(CSc3nnc(Cc4ccccc4)n3-c3cccc(C)c3)n2)cc1	?	?
Cn1c(=O)c2c(c3ccccc31)OC(=O)CC2c1cccc(Cl)c1 (configuration not stated)	-5%	-1%
CCOC(=O)c1c(NC(=O)c2cc3ccccc3c(=O)o2)sc2c1CCC(C(C)(C)C)C2 (configuration not stated)	14%	-6%
COC(=O)c1ccc(OC)c(Cn2c(=O)n(-c3cccc(Cl)c3)c(=O)c3c2c2cc(C)ccc2n3C)c1	3%	-8%
COc1cc(OC)cc(-c2cc3nc(C)c(CCC(=O)NCc4ccc(Cl)cc4)c(C)n3n2)c1	-25%	5µM*
CCC12CN3CC(CC)(CN(C1)C3c1cc(Br)ccc1OC)C2=O (configuration not stated)	?	?
CCc1ccc(N(CC)C(=O)c2cn(C)c(=O)c3cc(OC)c(OC)cc23)cc1	-27%	-1%
Cc1cccc(NC(=O)CSc2nc(C3CCCC3)nc3c2c(=O)n(C)c(=O)n3C)c1C	0%	10%
CCOc1ccc(-c2nc(SCC(=O)Nc3cc(F)ccc3F)n3[nH]c(=O)cc3n2)cc1	0%	-5%
COCCNC(=O)c1c[nH]c2ccc(S(=O)(=O)Nc3ccc(F)cc3F)cc2c1=O	-35%	3%
Cc1ccc(C)c(Cn2c(=O)n(Cc3ccccc3)c(=O)c3c(C)c(C)sc32)c1	-53%	2%
COc1ccc(NS(=O)(=O)c2ccc3c(c2)oc(=O)n3C)cc1Cl	?	?
Cc1nc2c(-c3ccccc3)c(C)nn2c(C)c1CCC(=O)N1CCN(c2ccc(F)cc2)CC1	?	-26%
CCN1CCC(N(Cc2ccc(F)cc2)C(=O)Nc2cc(Cl)ccc2C(=O)OC)CC1	?	-22%
C=Cc1ccc(Cn2c(=O)cc(C)c3c(C)nn(C)c32)cc1	-26%	?
CCOc1ccc(N(C)C(CNS(=O)(=O)c2ccccc2)c2ccccc2)cc1 (configuration not stated)	?	?
Cc1cccc(N2CCN(C(=O)c3ccc4c(c3)CCN4S(=O)(=O)c3ccccc3)CC2)c1C	?	?
Cc1ccc2c(c1)-c1c(cnn1CC(=O)Nc1ccccc1C#N)CO2	-10%	-18%
O=C(Nc1c(C(=O)N2CCN(c3ccccc3F)CC2)oc2ccccc12)c1ccccc1F	-10%	-30%
CCC(CC)(CC(=O)Nc1cccc(/C=C/c2nc(C3CCC3)cs2)c1)C(=O)O	.	23%
CC1=Nc2cc(C(=O)NCCc3ccccc3)ccc2Sc2c(C)ccc(C)c21	2.7µM*	?
CCOc1ccc(CNC(=O)C2CCCN(c3nnc(C)c4c(C)n(-c5ccccc5)nc34)C2)cc1 (configuration not stated)	?	-14%
CC1Cc2ccccc2N1S(=O)(=O)c1nnc(NC(=O)c2cccc(F)c2)s1 (configuration not stated)	-10%	25µM*
O=C(NCCS(=O)(=O)N1CCN(c2ccccc2)CC1)C(c1ccccc1)c1ccccc1	6%	-20%
Cl/C(=C\n1cncn1)c1ccc(Cl)cc1Cl	.	4%
CCOc1ccc(CNC(=O)c2cnc3c(C)cccn3c2=O)cc1	-18%	11%
Cc1c(NC(=O)Nc2ccccc2C(F)(F)F)c(=O)n(-c2ccccc2)n1C	-13%	-5%

Next part:
SMILES	PMP22 txn prim	HTT promoter inh
CC1CCN(c2ccc(-c3nc(-c4ccccc4)no3)cc2[N+](=O)[O-])CC1	-8%	?
Cc1cc(C)c(NS(=O)(=O)c2ccc3c(c2)NC(=O)CCS3)c(C)c1	?	-26%
Cn1c(C(=O)NCCc2ccccc2)cc2cc(S(=O)(=O)N3CCCCC3)ccc21	-16%	?
COc1ccccc1N1CCN(c2ncc3c(n2)CCN(Cc2ccccc2C)C3)CC1	5%	-7%
O=C(NCCOCCn1c(=O)oc2ccccc21)Nc1ccc(F)cc1F	-12%	-19%
COc1ccc2c(c1)c(C1=C(c3c[nH]c4ccccc34)C(=O)NC1=O)cn2CCCN(C)C	.	-22%
COc1ccc(S(=O)(=O)c2c(Nc3cccc(Cl)c3)sc(C(=O)c3ccccc3)c2N)cc1	-5%	?
CC(C)NC(=O)C1CCCN(c2ncnc3onc(-c4ccc(F)cc4)c23)C1 (configuration not stated)	-4%	-14%
COc1ccc(CNCCSc2nnnn2-c2ccccc2)cc1	5%	-25%
CCc1ccc(CNC(=O)c2cnc3sc(N4CCOCC4)nn3c2=O)cc1	-21%	-3%
Cc1ccc(CN(C(=O)COc2ccc(Br)cc2)c2ccccn2)o1	-20%	?
CCC1CN(C(=O)N2CCC(C(=O)N(C)Cc3ccccc3)CC2)c2ccccc2O1 (configuration not stated)	-21%	-21%
Cc1ccc(C(=O)Oc2cc(-c3ccc4c(c3)OCO4)cc(=O)c3c(C)oc(C)c23)cc1	?	?
COc1cc2ccccc2cc1C(=O)N1CCN(c2nc3c(C)cc(C)cc3s2)CC1	3%	-15%
CCc1ccccc1Nc1nn2c(=O)c3ccc(C(=O)NCCCOC(C)C)cc3nc2s1	?	-32%
COc1ccc(NC(=O)CSc2nncn3c2cc2occc23)c(OC)c1	?	5%
CC(=O)Nc1ccc(Nc2ccc3cc(S(=O)(=O)N4CCCCC4)ccc3n2)cc1	-11%	-18%
COc1cccc(NC(=O)c2cc3c(-c4ccc(Cl)cc4)nn(C)c3s2)c1	-9%	?
O=C(NCCCCc1ccccc1)c1nn(-c2ccccc2F)nc1CO	-18%	-24%
Cc1cccc(OCCCCn2c(C3CC(=O)N(c4ccc(C)cc4C)C3)nc3ccccc32)c1 (configuration not stated)	?	?
Cc1ccccc1NC(=O)c1cc2c(-c3ccccc3)nn(-c3ccccc3)c2s1	-11%	-11%
COc1ccc(-c2c(C)c3ccc(O)c(CN4CCCC4)c3oc2=O)cc1OC	-41%	0%
COc1cc(-c2noc(CSc3nc(-c4ccc(F)cc4)cc(=O)[nH]3)n2)cc(OC)c1OC	-7%	3%
CCOc1ccc(N(C(=O)c2ccc(Cl)cc2)S(=O)(=O)c2ccc3c(c2)n(C)c(=O)n3C)cc1	2%	5%
CC(=O)c1cccc(NC(=O)[C@H]2O[C@@H]3OC(C)(C)O[C@@H]3[C@H]3OC(C)(C)O[C@H]32)c1	-3%	-9%
COc1ccc(CNC(=O)C2CCN(S(=O)(=O)c3ccc(F)cc3)CC2)cc1	3%	-20%
CCOc1ccc(S(=O)(=O)Nc2ccc3c(c2)CCCN3S(=O)(=O)c2ccc(C)cc2)cc1	?	?
COc1ccc(NC(=O)CCCc2nnc3n(CCC(C)C)c(=O)c4sccc4n23)c(OC)c1	-11%	-11%
COC(=O)c1ccc2c(c1)N(CC(=O)Nc1ccc(C)cc1Cl)C(=O)c1ccccc1S2	?	-18%
O=C(c1ccccc1)n1nc(-c2ccco2)nc1NCc1cccs1	-72%	4%
CCOC(=O)C1CCCN(C(=O)c2c(C)nn(-c3ccc(F)cc3)c2-n2cccc2)C1 (configuration not stated)	-7%	?

Screening results (PubChem BioAssay)
